Source: PubChem (Fisher Drug Discovery Resource Center)
NPYLR7 ag – mosquito NPYLR7 agonism; HEK293T NPYLR7/Galpha15, GCaMP6s calcium fluorescence; activation, % at 10 µM; 270,000 tested, 0.15% active; AID 1259423; in the data active = activation above about 40%;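 also: 0% = vehicle and 100% = reference agonist at the receptor; some compounds past the cut are filed as inactive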
NPYLR7 ag max-min – recorded beside NPYLR7 ag, whose call it bears; activation, %; measured here: Max-Min RFU normalised activation; some inactives read as strong as hits;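 span of the calcium signal over five minutes; 0% = vehicle and 100% = native peptide agonist; compound fluorescence can raise it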
The depositor's hits bear a star; & = joins results of further samples. This is a subset (hit frequency here may not be typical).

SMILES	NPYLR7 ag	NPYLR7 ag max-min
O=C(Nc1ccc(Oc2ccccc2F)cc1)C1CCN(Cc2ccccn2)CC1	7	4
Cc1ccc2ccccc2c1CO/N=C(/N)c1nonc1N	-1	-1
COCCN1C(=O)c2ccccc2[C@H](C(=O)NC/C=C(\C)CCC=C(C)C)[C@@H]1c1cccnc1	-7	-12
Cc1cccc2cc(CO)c(-c3ccc(S(C)(=O)=O)cc3)nc12	17	11
CCCN(Cc1nc(-c2ccc(C(F)(F)F)cc2)oc1C)CC1CCCO1 (stereo not drawn)	-7	-10
CCCc1nc(NCc2sc(C)nc2CC)c2cnn(C)c2n1	-1	-4
Cc1cccnc1C(NC(=O)C1CCN(CCCOc2ccc(F)cc2)CC1)c1ccccc1 (stereo not drawn)	11	4
Cc1ccc(C(=O)Nc2ccc(O)c(CN3CCOCC3)c2)cc1F	19	12
COCc1nc(C)nc(N2CCN(C(=O)c3ccccc3Cl)CC2)c1Cc1ccccc1F	7	19
CCc1ccc(Nc2nc(-c3cnc(N4CCOCC4)nc3C)cc(=O)[nH]2)cc1	-12	-17
CCC(=O)N1CCCCC1C(=O)Nc1cc(C(F)(F)F)ccc1F (stereo not drawn)	5	3
CC(C)N1CCn2nc(C(=O)N3CCC(c4cccc(O)c4)CC3)cc2C1	12	9

Single records, from the list above:
Shown for CCCN(Cc1nc(-c2ccc(C(F)(F)F)cc2)oc1C)CC1CCCO1 (stereo not drawn) = NPYLR7 ag: -7; NPYLR7 ag max-min: -10
Shown for Cc1cccnc1C(NC(=O)C1CCN(CCCOc2ccc(F)cc2)CC1)c1ccccc1 (stereo not drawn) = NPYLR7 ag: 11; NPYLR7 ag max-min: 4

Further records
SMILES	NPYLR7 ag	NPYLR7 ag max-min
CC(NC(=O)C1CCN(C(C)C)CC1)c1ccc2[nH]ccc2c1 (stereo not drawn)	15	7
CCN(CC)C(=O)Oc1ccc2c(ccn2Cc2ccccc2C)c1-c1ccc(OC)cc1	22	12
COc1ccc(NC(=O)c2ccc(CSc3nnc(-c4ccccc4[N+](=O)[O-])n3-c3ccc(OC)cc3)cc2)cc1	0	8
CN1CCC(N2CCCC(C(=O)N3Cc4ccccc4C3)C2)CC1 (stereo not drawn)	15	3
CCCc1nc(C)sc1C(=O)N1CCC[C@H]1C(=O)OCCc1ccc(OC)c(OC)c1	-18	-23
CC(=O)Nc1ccc(S(=O)(=O)NCC(c2ccsc2)N2CCN(C)CC2)cc1 (stereo not drawn)	20	8
Cn1c(C23CC4CC(CC(C4)C2)C3)nc2ccccc21	1&9	7&6
CSc1ncc(CNCc2sccc2C)c(N2CCOCC2)n1	3	16
COC(=O)CSc1ccc(NC(C)=O)nn1	2	-1
CCCCCCCC(=O)Nc1c(-c2ccc(C(F)(F)F)cc2)nc2ccccn12	-2	3
Cc1cncc(NCc2ccc(F)cc2)n1	-1	-3
CC(C)CN(Cc1c(-c2ccccc2)noc1N1CCCCC1C)CC(O)CN1CCOCC1 (stereo not drawn)	12	16
COC(=O)c1cccc(NC(=O)c2sc3ccc(OC)cc3c2Cl)c1	-3	-12
CCCc1[nH]n(-c2ccc(Cl)c(Cl)c2)c(=O)c1C1=C([n+]2ccccc2)C(=O)N(c2cccc(C)c2)C1=O	-12	-4
O=c1[nH]nc(SCc2cn3cccnc3n2)c(=O)[nH]1	12	7
Cc1cnccc1CN(C)C(=O)c1cnc(C(C)C)[nH]c1=O	-8	-12
CCS(=O)(=O)c1ccc2oc(NC(=O)C3CCC3)nc2c1	3	1
O=C(Nc1nnc(COc2ccc(F)cc2)s1)c1ccc(F)cc1	-1	-2
Cc1cn2c3c(=O)n(CCCc4ccccc4)c(=O)n(C)c3nc2n1CCOCCO	6	6
Cc1ccc(C(=O)N(CCC(N)=O)c2ccc(F)cc2)cc1	4	3
CCCCCCCC(=O)Nc1c(-c2ccc(C)cc2)nc2ccc(C)cn12	-7	-6
CCC(=O)N1CCC1(C)C(=O)Nc1cc(C)nn1C (stereo not drawn)	5	3
CCCC(=O)N1CCC1(C)C(=O)NS(=O)(=O)c1ccccc1Cl (stereo not drawn)	-1	-9
CSc1nsc(SC)c1C(=O)Nc1ccccc1I	7	5
Cc1cc(Cl)c(Cl)cc1S(=O)(=O)NCCCN1CCOCC1	10	10
O=C(c1csc(COc2ccc(F)cc2F)n1)N1CCCC1	-7	-6
CC1(C(=O)NS(=O)(=O)c2ccc(F)cc2F)CCN1C(=O)Cc1cc(F)ccc1F (stereo not drawn)	1	-1
Cc1ccc(C)c2[nH]c(=O)c(CCNC(=O)Cc3ccccc3)cc12	-1	13
Cc1ccc(CN2CCN(Cc3nc(-c4ccccc4)no3)CC2CCO)o1 (stereo not drawn)	3	-1
Cc1ccc(CSc2nnc(SCC(N)=O)s2)cc1	-4	-7
CC1CN(c2nc(-c3ccccc3)nc3c2CN(C(=O)Nc2ccc(Cl)c(Cl)c2)CC3)CC(C)O1 (stereo not drawn)	-1	4
CCCCN(C)S(=O)(=O)Nc1ccc(-n2cncn2)cc1	9	8
COc1cc(CN(CC(O)COCc2ccccc2)C2CC2)cc(OC)c1 (stereo not drawn)	19	24
COc1cccc(C(=O)N2CCc3c(sc4[nH]c(=O)n(C5CCCCC5)c(=O)c34)C2)c1	3	1
COCCNC(=O)C1CCCN(C2CCN(C(=O)c3ccco3)CC2)C1 (stereo not drawn)	8	4
O=C(Nc1ccccc1F)N1CCC(Cc2ccc(-c3ccccc3)cc2)CC1	15	4
CCOC(=O)c1cnc2cc(C(F)(F)F)ccc2c1Nc1ccc(NC(C)=O)cc1	15	13
CCc1nc2n(n1)C(=O)C(C(c1ccc(C)cc1)N1CCCC1)S2 (stereo not drawn)	-4	5
Nc1cc(Nc2ncnc3sc4c(c23)CCC4)ccc1OC(F)(F)C(F)F	-3	-4
CC#C[C@]1(O)CCC2C3CCC4=CC(=O)CCC4=C3[C@@H](c3ccc(N(C)C)cc3)C[C@@]21C (stereo partly drawn)	-5	-4
COc1ccc(C(=O)N[C@H]2C[C@H]3CN(C)CCN3C2)c(O)c1	-5	-8
O=S(=O)(Nc1cccc2[nH]ccc12)c1ccc(Br)cc1	1	-6
CC1ON=C(c2ccc3c(c2)CCO3)N(CCOc2ccc(F)cc2)C1=O (stereo not drawn)	5	3
Cc1nc(CC(=O)N2CCCC(C(=O)c3ccc4ccccc4c3)C2)cs1 (stereo not drawn)	24	6
Cc1cccc(Oc2cnn(-c3cccc(Cl)c3)c(=O)c2Nc2cccc(C(=O)NC3CC3)c2)c1	6	11
COc1ccc(CNC(C)C(=O)N2CCCCC2C)cc1O (stereo not drawn)	3	2
Cc1cc(Cl)ccc1OCC(=O)NCC(=O)NC(C)C	7	6
OCC1(O)CCN(c2ccnc3c(C(F)(F)F)cccc23)CC1	4	-4
Cc1ccccc1Cn1c(C(=O)N2CCN(C(=O)C34CC5CC(CC(C5)C3)C4)C(C)C2)cc2ccsc21 (stereo not drawn)	-1	2
CCc1[nH]nc(S(=O)(=O)NC2CCN(Cc3ccccc3)CC2)c1C(=O)OC	-4	-4
C=CCn1c(SCC(=O)c2cc(OC)c(OC)c(OC)c2)nc2sc(CC)cc2c1=O	-4	-6
COc1cc(S(=O)(=O)NCC(C)O)ccc1Cl (stereo not drawn)	-8	-9
CC(C)SCC(=O)N1CCC2(CC1)CN(C)CCN2C	-3	9
Cc1ccsc1C(=O)N(C)c1ccc(-c2onc3c2CCc2ccccc2-3)cc1	4	0
Cc1cccc(C(c2n[nH]c(C3CC3)n2)N(C)C)c1 (stereo not drawn)	17	17
Cn1nc([N+](=O)[O-])nc1Sc1nc2c(c(=O)n(C)c(=O)n2C)n1C	-3	-6
CCOc1ccc(-n2nnc(C(=O)NCc3ccco3)c2N)cc1	4	6
Cc1cc(C)cc(N2CCN(C(=O)CCn3nnnc3CN3CCOCC3)CC2=O)c1	9&3	5&-2
COc1ccccc1OCC1c2ccsc2CCN1C(=O)CN(CC1CCCO1)C(=O)C1CCCC1 (stereo not drawn)	-2	1
O=C(N/N=C\c1cccc2ccccc12)c1cc(-c2cccs2)[nH]n1	2	6

Further structures.
SMILES	NPYLR7 ag	NPYLR7 ag max-min
CC(=O)Nc1ccc(Cl)c(C(=O)NCc2cnc(C)cn2)c1	-3	-7
COCc1cc(C)nc(N/N=C\c2c[nH]c3ccccc23)c1C#N	-2	9
COc1ccc(CCNC(=O)Nc2nc(C)n(C)n2)cc1	2	0
CCN1C(=O)c2cccc3c(NS(=O)(=O)c4ccccc4[N+](=O)[O-])ccc1c23	-4	-12
COC(=O)CSc1nnc2n(-c3ccc(OC)cc3)c(=O)c3c4c(sc3n12)CCCC4	9	9
CC(c1ccccc1)N(Cc1nc(C(=O)NCc2ccco2)co1)Cc1ccccc1C(F)(F)F (stereo not drawn)	15	3
Cc1nc(C(C)N(C)Cc2ccnc(C(C)C)n2)c(C)s1 (stereo not drawn)	5	3
O=C(CCCc1ccccc1)NCCSc1ncc(-c2ccc(F)cc2)[nH]1	1	0
CC1CCCN(C(=O)c2csc(-c3cnccn3)n2)C1 (stereo not drawn)	6	3
Cn1cc(CCNC(=O)CC(c2ccccc2)c2ccc3c(c2)OCO3)cn1 (stereo not drawn)	14	4
Cc1cc(CN(Cc2sccc2C)C2CCCC2)n[nH]1	3	8
CCc1nc2ccc(C(=O)NCc3ccc4c(c3)OCO4)cn2c1N(CC)CCOC	-7	-9
NC(=O)CN1CCC(Nc2nc(CSc3ccc(Cl)cc3)nc3sc4c(c23)CCC4)CC1	6	1
Cn1c(C(=O)NCc2ccc(Cl)cc2)cc2c(=O)n3ccccc3nc21	-6	-7
N#Cc1ccc(Oc2ccccc2N2C(=O)C3CCCCC3C2=O)cc1 (stereo not drawn)	3	6
c1ccc(COC2CCCN(Cc3cnc(N4CCCC4)nc3)C2)nc1 (stereo not drawn)	-2	25
Cc1cc(C(=O)N2CCN(c3nccc(-c4cccc(C(F)(F)F)c4)n3)CC2)ccc1F	5	4
COc1ccc(CCNc2ncnc3[nH]ncc23)cc1	3	3
CCCCCNC(=O)CCCOc1ccc(C)cc1C	3	10
CCOC(=O)c1sc(NC(=O)Cn2nc(C)c([N+](=O)[O-])c2C)c(C(=O)OCC)c1C	-9	-12
CC(NS(=O)(=O)c1ccc(F)cc1Cl)c1cccc(F)c1 (stereo not drawn)	-1	-1
FC(F)(F)c1ccn(Cc2ccccc2)n1	16	7
CCOC(=O)c1c(NC(=O)c2ccccc2F)sc2c1CC(C)(C)NC2(C)C	0	4
O=C1N=C(N2CCCCC2)SC1=Cc1ccccc1F	12	2

Individual results from the list.
NPYLR7 ag result of `CCc1ccc(Nc2nc(-c3cnc(N4CCOCC4)nc3C)cc(=O)[nH]2)cc1` : -12
NPYLR7 ag result of `CC#C[C@]1(O)CCC2C3CCC4=CC(=O)CCC4=C3[C@@H](c3ccc(N(C)C)cc3)C[C@@]21C` (stereo partly drawn) : -5
NPYLR7 ag result of `CCOC(=O)c1cnc2cc(C(F)(F)F)ccc2c1Nc1ccc(NC(C)=O)cc1` : 15
NPYLR7 ag result of `Cc1cnccc1CN(C)C(=O)c1cnc(C(C)C)[nH]c1=O` : -8

Another view of 3 compounds above:
Molecule: CCCCCCCC(=O)Nc1c(-c2ccc(C)cc2)nc2ccc(C)cn12
  NPYLR7 ag: -7
  NPYLR7 ag max-min: -6
Molecule: CCS(=O)(=O)c1ccc2oc(NC(=O)C3CCC3)nc2c1
  NPYLR7 ag: 3
  NPYLR7 ag max-min: 1
Molecule: FC(F)(F)c1ccn(Cc2ccccc2)n1
  NPYLR7 ag: 16
  NPYLR7 ag max-min: 7

Next records follow:
SMILES	NPYLR7 ag	NPYLR7 ag max-min
COc1nccnc1N1CCC(N2CCCC(C(=O)N3CCOCC3)C2)CC1 (stereo not drawn)	-2	-3
COc1cccc(-c2cc(CC(=O)NCCC3=CCCCC3)no2)c1	-1	3
Cn1ncc(C(=O)N2CCN(Cc3cc(=O)c(OCc4ccc(-c5ccccc5C#N)cc4)co3)CC2)c1Cl	1	0
CSc1nc2ccc(NC(=O)c3ccncc3)cc2s1	-4	-5
Cc1ncc(COc2ccc(-c3ccc(C#N)cc3)cc2)s1	1	21
Cc1ccccc1-c1ncc(CN2CCCC(C(=O)c3cccc(Cl)c3)C2)cn1 (stereo not drawn)	14	2
c1cncc(CN2CCN(c3cc(-c4cccc5ccccc45)nc4ccnn34)CC2)c1	6	-2
COc1ccc(-c2ccc(CCC(=O)NCCOC(C)C)n2-c2ccc(SC)cc2)cc1	0	-1
O=C1NC2(CCN(C(=O)Nc3ccc(Br)cc3)CC2)Nc2cc(Cl)ccc21	1	8
O=C(Nc1nc2c(s1)CCN(Cc1ccccc1)C2)c1cccc(F)c1	7	5
O=C(c1ccccc1C1CCNC1)N(Cc1cccc(O)c1)C1CC1 (stereo not drawn)	1	-1
O=C(NCCCN1CCOCC1)c1cc(-c2ccc(F)cc2)nc2cc(-c3ccccc3)nn12	17	23
O=C(c1ccc2c(c1)OCO2)N1CCCC(OCc2cccc(OC(F)(F)F)c2)C1 (stereo not drawn)	-4	-2
Cc1ccccc1OCCCN1CCC(NC(=O)C2CC2)CC1	-6	-7
CCN1CCN(C(=O)c2cc(-c3ccc(Cl)cc3)n(-c3ccccc3C)c2C)CC1	-2	6
CCCSc1ncccc1C(=O)N[C@@H](C)[C@H](O)c1ccccc1	-11	-23
COc1ccc(CN(CCc2c[nH]c3ccccc23)C(=O)CN(C(=O)c2ccc([N+](=O)[O-])cc2)C(C)C)cc1	20	14
O=C(Nc1cccc(F)c1)C(=O)N1CCO[C@@H]2CCCC[C@H]21	-3	-6
CCc1ccc(OCC(O)CN2C(=O)c3ccccc3C2=O)cc1 (stereo not drawn)	4	-4
Cc1ncnc(NCc2cccnc2Oc2cccc(C(F)(F)F)c2)c1C	2	0
CCOC(=O)C1CCN(CC(=O)N2N=C(c3ccc(F)cc3)CC2c2ccc3c(c2)OCO3)CC1 (stereo not drawn)	-4	4
